FGF22 binding: FGF22 (human) thermal shift binding; recombinant FGF22 thermal shift, SYPRO orange fluorescence; percent of sucrose octasulfate shift, DMSO zero; calls only at 9.99 µM; 1.5% of 340,000 active;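 active = melting point raised past a set limit in the mean and every replicate; three in four hits are not shown here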
Target sequence (Q9HCT0 whole entry, looked up): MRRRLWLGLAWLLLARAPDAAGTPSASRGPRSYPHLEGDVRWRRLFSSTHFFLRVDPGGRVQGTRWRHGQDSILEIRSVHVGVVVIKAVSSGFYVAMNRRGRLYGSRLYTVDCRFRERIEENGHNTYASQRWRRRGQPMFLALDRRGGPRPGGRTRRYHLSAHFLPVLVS
ALR inh: inhibitors of human sulfhydryl oxidase ALR; P55789; purified ALR, DTT oxidation, H2O2 HRP-luminol luminescence; inhibition, % (concentration not given with the values); 3.8% of 290,000 active; AID 485317;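 active = mean and each replicate at 75% or more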;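 note: stock transfer was 7.5 nL into about 7.5 µL; 0% = neutral wells and 100% = wells with inactivated enzyme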
Target sequence (P55789 whole entry, looked up): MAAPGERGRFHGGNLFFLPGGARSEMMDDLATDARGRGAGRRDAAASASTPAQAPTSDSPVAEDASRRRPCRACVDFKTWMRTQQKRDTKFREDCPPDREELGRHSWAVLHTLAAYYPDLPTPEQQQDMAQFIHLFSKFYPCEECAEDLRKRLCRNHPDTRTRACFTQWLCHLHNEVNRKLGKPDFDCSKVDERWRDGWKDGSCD
HNF4A DNA FP: change in binding of human HNF4 alpha to DNA. P41235. HNF4a-FITC DNA binding, fluorescence polarization, 1 h. activity change, % at 10 µM. 0.3% of 360,000 active; in the data active = activity change above about 30%, passing the limit was not always enough;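 note: controls were the assay level and a saturating level of protein; the project sought stronger binding though the title names inhibitors; some compounds called inactive have numbers as strong as hits; positive values seem to mean higher polarization but the record does not say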
UCH37 DUB inh: blocks the human deubiquitinase UCH37. purified proteasome/UCH37, Ub-AMC cleavage fluorescence. inhibition, % (concentration not given with the values). 0.33% of 330,000 active. AID 588478;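 active = mean of two replicates above 20%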;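 note: 0% = compound-free wells with enzyme and 100% = wells lacking proteasome; stock transfer was 100 nL into about 20 µL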
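Material: Human UCH37 enzyme supplied as purified proteasome complex | Schedule: 30 min preincubation with enzyme, 25 min cleavage at room temperature | Detection: AMC fluorescence 355/460 nm | Measure: % inhibition of Ub-AMC cleavage fluorescence | Controls: Wells without proteasome as full block, compound-free enzyme plus substrate as uninhibited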
Ecoli rRNA inh: selective bacterial rRNA inhibition in E. coli | E. coli WT GFP vs humanized-ribosome RFP mutants, fluorescence, 24 h; hits give low values; DMSO median 0, no signal -100 | GFP signal change (wild-type ribosome), % (no concentration beside the values) | 1.6% of 350,000 active | AID 720706;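 active = significant combined selectivity score with lowered wild-type GFP, culture density cut under 30%, mutant RFP and density less affected; inactive = any of these conditions unmet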; note: one replicate is shown; some compounds called inactive have numbers as strong as hits
Beta2AR agonist: agonists of human beta-2 adrenergic receptor inducing internalization; AID 504454; 0.43% of 340,000 active; response, % (no concentration beside the values); Am2.2-beta2AR cells, FAP receptor internalization, flow cytometry; reference of the scale not given here;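 active = response above a set limit, near 3 SD of response in nonfluorescent compounds, cut at about 42% in these data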;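 note: stock transfer was 100 nL into about 11 µL; a reference agonist was the positive control; negative values mostly stem from fluorescent compounds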
Target sequence (P07550 whole entry, looked up): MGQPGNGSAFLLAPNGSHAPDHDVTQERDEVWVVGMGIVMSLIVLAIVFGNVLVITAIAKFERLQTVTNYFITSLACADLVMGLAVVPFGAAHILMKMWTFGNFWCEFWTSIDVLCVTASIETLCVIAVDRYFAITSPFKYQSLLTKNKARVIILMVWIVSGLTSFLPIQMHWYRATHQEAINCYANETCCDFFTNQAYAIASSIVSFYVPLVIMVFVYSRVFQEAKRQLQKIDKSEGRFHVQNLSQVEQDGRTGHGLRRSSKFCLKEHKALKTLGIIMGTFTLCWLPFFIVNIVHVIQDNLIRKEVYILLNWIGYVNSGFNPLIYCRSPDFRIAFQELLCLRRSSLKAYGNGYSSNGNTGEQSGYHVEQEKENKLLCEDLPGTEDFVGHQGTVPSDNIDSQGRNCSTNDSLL
E coli growth: blocks Escherichia coli growth; AID 1053175; OD600, 23 h; hits give low values; 0.21% of 330,000 active; OD600 absorbance (no concentration beside the values);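 active = OD600 absorbance below the run mean of sample wells minus 3.6 SD, in any replicate, cut at about 0.56 in these data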;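 note: stock transfer was 300 nL into about 60 µL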
Ecoli rRNA inh OD600: further read-out of Ecoli rRNA inh, marked with its call; OD600 change, %; measured here: OD600 growth;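 optical density of the mix in the first replicate; 0 = DMSO median and -100 = no signal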
Ecoli rRNA inh RFP: further read-out of Ecoli rRNA inh, marked with its call; RFP signal change, %; measured here: RFP humanized mutant strains;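 first replicate; 0 = DMSO median and -100 = no signal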
The depositor's hits bear a star; i = inactive; · = no result given; & = joins results of further samples. A portion of the library (hit frequency here may not be typical).

SMILES	FGF22 binding	ALR inh	HNF4A DNA FP	UCH37 DUB inh	Ecoli rRNA inh	Ecoli rRNA inh OD600	Ecoli rRNA inh RFP	Beta2AR agonist	E coli growth
CCN1CCN(c2ccc(NC(=O)c3ccc4c(c3)[nH]c(=O)n4Cc3ccc(OC)cc3)cc2)CC1	·	-8	5.0	3.5	·	·	·	4	0.63
Cc1nnc(NC(=O)c2ccccc2Br)s1	·	5	0.1	-0.5	·	·	·	4	0.65
N#Cc1cc(C(=O)c2cc(Br)ccc2O)cn(Cc2ccccc2)c1=O	i	-1	18	9.6	-6	12	3.1	6	0.72
CC(C)CC(=O)NC(=S)N1CCN(c2ccc([N+](=O)[O-])cc2Cl)CC1	i	-1	1.9	2.5	1	-3	-0.6	0	0.66
CN(CC(=O)Nc1ccc(Cl)cc1)C(=O)CNC(=O)c1ccc2ccccc2c1	i	-1	0.6	-0.9	2	1	3.0	-12	0.72
CN(C(=O)C1CCN(S(=O)(=O)c2cccc3nonc23)CC1)C1CCCCC1	i	-11	-3.4	2.9	8	-29	-0.6	-3	0.67
O=C(COc1ccc(F)cc1Br)NCC1(N2CCOCC2)CCCCC1	i	0	-0.1	5.6	-5	-7	-1.1	-11	0.63
CCOC(=O)c1c(-c2ccccc2)csc1NC(=S)N(CC)CC	i	·	5.2	5.2	12	7	-0.3	14	0.74
O=C(COC(=O)c1ccccc1NS(=O)(=O)c1cccs1)NC1CCCCC1	·	·	-3.3	-2.1	·	·	·	-5	0.67
CCCCCCc1nc(C(N)=O)c2[nH]c(=O)n(-c3ccc(OC)cc3OC)c2n1	i	-21	1.4	0.6	6	-13	15	19	0.66
Cc1ccc(C)c(-c2nnc(NC(=O)COc3ccccc3)o2)c1	i	·	-0.8	0.8	-27	-54	-3.9	-5	0.67
O=C(CN1CCN(Cc2ccc(Cl)cc2)C1=O)NCCN1CCCC1	i	·	3.1	6.9	0	2	2.5	0	0.72
O=C(O)c1cccc(-c2csc(C(O)c3cccc(Cl)c3)n2)c1 (stereo unspecified)	i	·	-2.1	·	-5	-8	1.4	·	·
Cc1nn(-c2ccccc2)c(N2CCCC2)c1/C=N/NC(=O)c1cccc(S(=O)(=O)Nc2ccc(Cl)cc2)c1	i	·	2.7	·	6	13	1.9	0	·
O=C(NCc1csc(-c2cccs2)n1)c1ccsc1	i	-11	1.4	-4.4	-11	-2	-0.2	-8	0.65
O=C(c1cnccn1)N(c1ccccc1)C1(C(=O)NC2CCCC2)CCCCC1	·	1	5.5	-0.1	·	·	·	-1	0.75
Cc1ccc(CN2CC(N3CCN(c4ccccn4)CC3)CS2(=O)=O)cc1 (stereo unspecified)	i	·	-0.4	·	-3	2	-2.1	·	·
COc1ccc(CCCNC(=O)C2CCC(=O)N(Cc3ccccc3F)C2)cc1 (stereo unspecified)	i	0	-1.1	-0.3	5	-1	0.1	-2	0.72
CCCCn1c(N)c(N(CCC(C)C)C(=O)COC(=O)c2sccc2C)c(=O)[nH]c1=O	i	·	0.2	2.5	6	7	-1.1	7	0.67
CC(C)Cn1c(N)c(C(=O)CSc2cc(Cl)ccc2Cl)c(=O)n(C)c1=O	·	-1	·	6.8	·	·	·	·	0.69
O=S(=O)(c1ccccc1)N(Cc1ccccn1)Cc1ccccn1	i	·	2.0	0.8	9	5	1.1	-5	0.64
CN(Cc1nc2c(s1)CCCC2)C(=O)CCc1nnc(-c2ccccc2)o1	i	-3	0.2	-0.5	12	-2	2.3	2	0.71
O=P(NC1CCCCC1)(c1ccccc1)c1ccccc1	i	·	-3.8	2.3	-9	-8	-3.6	-3	0.67
CCOc1ccc(/C(C)=N/NC(=O)Cn2nc([N+](=O)[O-])cc2C)cc1	i	·	4.2	·	10	9	1.3	-4	·
CC(C)Sc1nc(N)nc(-c2cccs2)c1C#N	·	·	1.6	1.0	·	·	·	-2	0.75
O=C(CSc1ccc(-c2ccc(F)cc2)nn1)NCC1CCCO1 (stereo unspecified)	i	-7	-2.7	2.1	2	4	-4.1	-6	0.73
CCC(C)(C)NC(=O)C(c1ccc(OC)cc1)N(C(=O)CCC(=O)Nc1cc(C)on1)c1ccccc1F (stereo unspecified)	i	·	1.2	1.5	4	11	-2.1	8	0.66
C=Cn1cc[n+](CC(=O)c2ccc(-c3ccccc3)cc2)c1	i	30	5.0	-1.9	-56	-81	-24	-2	0.68
O=C(Nc1cc(Cl)cc2c1-c1ccc(Cl)cc1C2O)C(Cl)Cl (stereo unspecified)	·	·	2.5	·	-60	-78	-16	24	·
COc1cc(-c2nc3n(n2)C(c2cccc(OC)c2OC)C2=C(CCCC2=O)N3)cc(OC)c1OC (stereo unspecified)	·	13	1.3	3.4	·	·	·	3	0.73
CC(C)C1CC2=C(C(=O)OC(C)(C)O2)C(c2ccc(F)cc2)O1 (stereo unspecified)	i	·	0.9	·	-10	6	-5.9	·	·
CCOc1ccc(C2CC(c3cccc(OC)c3)Nc3ncnn32)cc1 (stereo unspecified)	i	-6	0.3	5.6	1	-10	1.9	-2	0.74
COc1ccc(CCN2CC(C(=O)NCCN3CCOC3=O)CCC2=O)cc1 (stereo unspecified)	i	1	0.6	2.3	3	9	-2.5	2	0.71
COc1ccc(Cl)cc1NC(=O)CN(C)CC(=O)Nc1cccc(S(=O)(=O)N2CCCC2)c1	i	·	-2.6	1.8	-5	-18	-0.8	8	0.7
COc1ccc(N2CCN(Cc3csc(C)c3-c3ccc(C)cc3)CC2)cc1	i	-4	4.9	1.0	-15	-33	-3.8	-5	0.64
COC(C[C@@H](O)C[C@H](O)[C@H](C)OCc1ccccc1)OC	i	-14	2.8	·	10	12	15	-6	·
CCc1ccccc1NC(=O)CN1CCN(C(=O)CNC(=O)c2ccc(-c3ccccc3)cc2)CC1	i	-22	2.0	0.8	-33	-36	-2.4	4	0.7
CC(=O)Nc1ccccc1N(C)S(=O)(=O)c1ccc(C)cc1	·	-3	2.5	5.0	·	·	·	-5	0.69
CC(CCOS(N)(=O)=O)c1ccccc1 (stereo unspecified)	·	-19	-4.2	0.4	·	·	·	1	·
Cc1ccc(NC(=O)/C(=C\c2ccco2)NC(=O)c2ccco2)cc1	i	·	7.9	7.8	43	12	3.4	-3	0.61

Quoted at random: seven records from the list.
SMILES	FGF22 binding	ALR inh	HNF4A DNA FP	UCH37 DUB inh	Ecoli rRNA inh	Ecoli rRNA inh OD600	Ecoli rRNA inh RFP	Beta2AR agonist	E coli growth
O=C(COc1ccc(F)cc1Br)NCC1(N2CCOCC2)CCCCC1	i	0	-0.1	5.6	-5	-7	-1.1	-11	0.63
O=P(NC1CCCCC1)(c1ccccc1)c1ccccc1	i	·	-3.8	2.3	-9	-8	-3.6	-3	0.67
CN(CC(=O)Nc1ccc(Cl)cc1)C(=O)CNC(=O)c1ccc2ccccc2c1	i	-1	0.6	-0.9	2	1	3.0	-12	0.72
CCC(C)(C)NC(=O)C(c1ccc(OC)cc1)N(C(=O)CCC(=O)Nc1cc(C)on1)c1ccccc1F (stereo unspecified)	i	·	1.2	1.5	4	11	-2.1	8	0.66
O=C(CSc1ccc(-c2ccc(F)cc2)nn1)NCC1CCCO1 (stereo unspecified)	i	-7	-2.7	2.1	2	4	-4.1	-6	0.73
C=Cn1cc[n+](CC(=O)c2ccc(-c3ccccc3)cc2)c1	i	30	5.0	-1.9	-56	-81	-24	-2	0.68
CC(C)Sc1nc(N)nc(-c2cccs2)c1C#N	·	·	1.6	1.0	·	·	·	-2	0.75

Additional structures follow.
SMILES	FGF22 binding	ALR inh	HNF4A DNA FP	UCH37 DUB inh	Ecoli rRNA inh	Ecoli rRNA inh OD600	Ecoli rRNA inh RFP	Beta2AR agonist	E coli growth
CC(C)c1ccc(N2C(=O)CC(NNC(=O)c3cccnc3)C2=O)cc1 (stereo unspecified)	i	-8	2.2	6.8	·	·	·	-3	0.69
CN(Cc1cnn(C)c1)Cc1nc(COc2ccccc2)no1	i	-6	-2.3	2.1	11	14	1.6	-2	0.7
Cc1nc(/N=C(\N)N(C)C)[nH]c(=O)c1C	i	-20	1.2	-0.2	11	12	-0.7	-10	0.65
O=C(Oc1ccc(NC2=C(Cl)C(=O)c3ccccc3C2=O)cc1)c1ccc([N+](=O)[O-])cc1	·	·	0.1	-3.9	·	·	·	15	·
CCC(C)c1ccccc1NC(=O)COC(=O)c1ccc2c(c1)S(=O)(=O)c1ccccc1C2=O (stereo unspecified)	·	0	1.6	2.7	·	·	·	-3	0.74
CC[C@@H](C)[C@@H](C(=O)N1CCNCC1)n1cc(CCC(=O)O)nn1	i	-8	2.3	2.9	13	18	-5.1	-2	·
C[C@@H](NCCCn1cnc2c(OCc3ccccc3)ncnc21)c1cccc2ccccc12	i	·	0.5	·	-7	-23	6.2	24	·
CC(NC(=O)CN1C(=O)NC2(CCCC2)C1=O)c1ccc2ccccc2c1 (stereo unspecified)	i	·	-2.7	1.5	·	·	·	-3	0.66
COc1ccc(N2CCN(S(=O)(=O)c3ccc(C(=O)NC4CCCC4)cc3)CC2)cc1	i	·	-4.2	1.3	4	9	1.2	-11	0.67
O=C(Nc1cccc(Cl)c1N1CCCC1)c1ccc(Br)o1	·	44	1.9	1.9	·	·	·	1	0.67
C[C@H](CO)N1C[C@H](C)[C@@H](CN(C)S(=O)(=O)c2ccccc2)Oc2ccc(NC(=O)Cc3ccccc3)cc2C1=O	i	-1	-0.1	0.3	-5&4	-2&-1	-1.1&-2.5	6	·
O=C1NCCN/C1=C\C(=O)c1ccccc1	i	-2	0.7	12	18	12	1.2	-2	0.65
Cc1cc(=O)oc2c(C)c(OCC(=O)N3CCN(c4ccccc4)CC3)ccc12	i	0	1.4	-1.3	-2	5	-1.9	-3	0.68
NC(=O)Nn1c(CCC(=O)O)ccc1-c1ccc(F)cc1	·	·	6.3	3.3	·	·	·	-2	0.72
COC(=O)C1=C(C)N(C)C(C)=C(C(=O)OC)C1c1ccncc1	·	-14	1.1	5.2	·	·	·	6	0.69
O=C(Cn1cccc1)Nc1ccc(OC(F)(F)F)cc1	i	1	-0.3	3.2	10	3	-0.3	-6	0.66
Cc1ccccc1C(=O)NNC(=O)c1cccn1C	i	-6	1.6	-1.3	5	10	-0.4	5	0.64
C[C@]12C=CC(=O)C=C1CC[C@@H]1C2[C@@H](O)C[C@@]2(C)C1CC[C@]2(O)C(=O)COC(=O)CCC(=O)O (stereo partly specified)	i	-2	-0.4	-0.3	9	17	-0.2	-8	0.67
CCOc1ccc(/C=C/C(=O)c2c(O)cc(C)oc2=O)cc1	i	95*	0.6	7.5	-6	-1	2.6	6	0.66
COc1ccccc1-c1nnc(SCC(=O)NCc2c(C)c(Cl)cc(C(C)C)c2O)o1	i	-10	-0.3	4.1	5	-1	-2.6	-10	0.68
O=C(CSc1nc2ccc(NC(=O)c3ccccc3C(=O)O)cc2s1)Nc1c(Cl)cccc1Cl	i	·	0.5	3.0	-2	0	19	8	0.73
CCCCCCCNC(=O)C1(CC2CC(c3ccc(Cl)cc3)=NO2)CCN(C(=O)C2(C)CC2)CC1 (stereo unspecified)	·	-23	-6.0	2.7	·	·	·	14	·
O=C(NCC1CCCO1)c1cc(C(=O)c2ccc(Cl)cc2Cl)c[nH]1 (stereo unspecified)	i	0	-2.7	4.2	13	9	-2.9	11	0.64
O=S(=O)(c1ccc(F)cc1)N1CN(Cc2ccco2)c2nc3ccccc3nc21	·	7	13	-19	·	·	·	-9	0.63

Bioassay records: PubChem, several laboratories
